GLA inh pH 4.5: alpha-galactosidase A (human) inhibition, pH 4.5; P06280; purified enzyme, 4-MU-alpha-Gal fluorescence, pH 4.5; activity change, negative = inhibition, % at 105 µM; 230,000 tested, under 10 active; AID 1467; inconclusive = small, poorly fitted or top-dose-only inhibition, or a rising curve; inactive = flat fitted curve, though single readings scatter; no compound was filed as active;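 also: 0% = full activity with enzyme and -100% = basal without enzyme; dose as in the result columns while the protocol names 77 µM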
Target sequence (P06280 whole entry, looked up): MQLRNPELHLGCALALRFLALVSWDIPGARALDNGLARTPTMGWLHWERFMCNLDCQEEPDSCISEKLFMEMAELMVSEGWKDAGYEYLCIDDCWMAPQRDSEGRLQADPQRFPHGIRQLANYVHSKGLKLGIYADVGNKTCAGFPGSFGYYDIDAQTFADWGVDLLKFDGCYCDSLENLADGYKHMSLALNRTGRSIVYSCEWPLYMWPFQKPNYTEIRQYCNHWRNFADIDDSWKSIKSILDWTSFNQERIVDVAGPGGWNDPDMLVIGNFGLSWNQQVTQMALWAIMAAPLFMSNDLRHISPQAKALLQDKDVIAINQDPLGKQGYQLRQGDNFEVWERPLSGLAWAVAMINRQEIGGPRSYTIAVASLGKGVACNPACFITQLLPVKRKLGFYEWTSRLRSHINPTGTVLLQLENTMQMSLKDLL
Rango-impB inh: prevents formation of the Rango-importin beta complex. Rango CFP/YFP FRET sensor + importin beta, 45 min. AID 540263. Q14974. 340,000 tested, 0.031% active. Potency, µM (titrated, usually from 92.2 µM), without a hit: top-dose inhibition of complex formation; active = rising FRET ratio curve, often small or poorly fitted; inconclusive = mostly compound fluorescence or quenching in the first reads; inactive = flat curves in all reads;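 also: potency is read from the fitted curve at half-maximal effect; 0% = DMSO wells and 100% = buffer wells lacking importin beta; nearly all actives have a fitted effect of over 15% in size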
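Inhibition scored from the CFP 486 nm/YFP 530 nm FRET ratio 45 min after adding 0.125 microM importin beta to 50 nM Rango biosensor preincubated 5 min with compound (room temperature, PBS with DTT, Tween-20, BSA). No-importin wells as positive control.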
miR-21 FLuc: miR-21 reporter, rising signal | HeLa miR-21 FLuc reporter, luciferase, 48 h | Potency, µM (top dose mostly 38.3 µM), inactives show at the highest dose reporter change, positive = more light | 340,000 tested, under 10 active; active = well fitted rising curve with a large enough effect; inconclusive = small, poorly fitted or top-dose-only effect; inactive = no such curve, though single readings can be large or run the other way;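 also: % of control where 0% means no effect; miR-21 action dims this reporter so a rising signal means less miR-21 action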
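HeLa cells stably expressing CMV-driven firefly luciferase with a downstream miR-21 binding sequence, endogenously expressing miR-21, were treated with titrations (up to about 40uM final) for 48 hours at 37 degree Celsius. Luciferase luminescence was read after lysis.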
Rango dissoc inh: inhibitors of RanGTP-induced Rango-importin beta complex dissociation; Biochemical FRET Rango-importin beta, RanGTP-induced dissociation; AID 540253; Potency, µM (series often up to 46.1 µM), for inactives: top-dose activity change, negative = inhibition; O95149+P62826; 340,000 tested, 0.071% active; active means falling FRET ratio curve, often poorly fitted, with flat reads before Ran was added; inconclusive means other falling curves, or compound fluorescence or quenching; inactive means flat or rising ratio curve;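 also: potency is read from the fitted curve at half-maximal effect; % of control where 0% means no effect; nearly all actives have a fitted effect of over 45% in size; -100% = wells without RanGTP and RCC1; the record marks most hits as doubtful in a second field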
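Rango (0.1 uM)–importin beta (0.25 uM) complex; RanGTP-RCC1 trigger; 45 min RT; CFP/YFP FRET read.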
Starred values were filed as active, the others as inactive; ? = inconclusive; . = not tested or not shown; & = joins results of further samples. A portion of the library (hit frequency here may not be typical).

SMILES	GLA inh pH 4.5	Rango-impB inh	miR-21 FLuc	Rango dissoc inh
Cc1cccc(C(=O)OCC(=O)N(CC(C)C)c2c(N)n(Cc3ccccc3)c(=O)[nH]c2=O)c1O	.	-4.7%	.	-15%
O=C(CSc1ccccc1C(=O)O)NCc1ccccc1	-21	1.3%	-6%	25%
CC(=O)c1cccc(S(=O)(=O)N2CCCC(c3nc4c(nnn4Cc4ccccc4Cl)c(=O)[nH]3)C2)c1 (centres undefined)	.	0.0%	-15%	1%
COc1ccc(CC(=O)NCc2ccccc2)cc1S(=O)(=O)N1CCOCC1	3	-1.0%	-1%	-4%
CC1(C)CC(=O)C2=C(C1)N(c1cccc(Cl)c1)C(=O)NC2(C(F)(F)F)C(F)(F)F	6	-1.9%	-7%	-21%
COC(=O)c1sc(C(C)(C)C)cc1CS(=O)(=O)c1ccc(Cl)cc1	-6	-2.0%	0%	-1%
O=C(CSc1nnc2ccccn12)NNC(=O)c1ccc([N+](=O)[O-])cc1	-2	?	1%	19%
CCN(CC(=O)Nc1ccccc1Br)C1CCCCC1	-12	-4.8%	1%	-24%
CCOC(=O)CCC(=O)Nc1ccc(S(=O)(=O)N2CCC(C)CC2)cc1	-6	-1.0%	-2%	7%
Cc1ccccc1C(=O)Nc1cc(S(=O)(=O)N2CCOCC2)ccc1N1CCN(C)CC1	.	3.4%	.	6%
COc1ccc(Nc2cc(C(=O)NCCCN3CCN(C)CC3)c3ccccc3n2)c(OC)c1	1	-1.6%	-9%	-4%
O=C(NCCCN1CCCCCC1)C1CC(=O)N(C2CCCC2)C1 (centres undefined)	-7	-2.7%	1%	-6%
CCSc1nc(-c2ccc(OC)cc2)cc(-c2ccc(OC)cc2)c1C#N	7	-0.7%	-2%	29%
O=C(CCCn1c(SCC(=O)c2ccc(F)cc2)nc2ccccc2c1=O)NCc1ccco1	5	5.9%	-1%	7%
Cc1nn(CC(=O)N2CCC(N3CCCCC3)CC2)c(=O)c2c1sc1ccccc12	.	-0.7%	-4%	0%
O=C(O)CC1(Cc2nc(-c3cccs3)no2)CCCC1	0	-0.1%	-7%	-15%
COc1ccc(N2C(=O)CCC(C(=O)NCCN3CCOCC3)C2c2ccc(OC)c(OC)c2)cc1 (centres undefined)	-3	0.7%	-2%	-6%
C=CCOc1c2ccc(C(=O)N(CC)c3ccc(OC)cc3)cc2nn1C	0	-1.9%	-13%	-4%
CCN(CC)S(=O)(=O)c1cccc(-c2nnc(SCC(N)=O)n2N)c1	12	-0.9%	0%	-11%
COc1ccc(N2C(=O)c3ccccc3NC2c2ccc(OC)c(CN3CCOCC3)c2)cc1 (centres undefined)	-14	-0.5%	-55%	-5%
CCOC(=O)N1CCN(C(=O)C2CCN(CC3CCCCC3)CC2)CC1	9	1.5%	-4%	18%
COC(=O)CCNCCSc1nnc(-c2ccco2)n1Cc1ccccc1	5	8.5%	0%	41%
O=[N+]([O-])c1cccc(S(=O)(=O)N2CCN(S(=O)(=O)N3CCOCC3)CC2)c1	.	-0.7%	11%	5%
Cc1cc([N+](=O)[O-])nn1CCCC(=O)Nc1c(C)n(C)n(-c2ccccc2)c1=O	8	-0.2%	-2%	6%
CN(C)c1ccc(C(C(=O)NCc2ccccc2)N(Cc2cccnc2)C(=O)c2snc(C(N)=O)c2N)cc1 (centres undefined)	.	3.0%	20%	-19%
CCCCn1c(N)c(N(CCOC)C(=O)CSCC(=O)Nc2cccc(C)c2)c(=O)[nH]c1=O	.	?	.	-17%
Cn1nc(C(C)(C)C)cc1C(=O)O	2	0.9%	2%	1%
O=C(Cn1cnc2c(nnn2Cc2ccccc2)c1=O)c1ccc(Cl)cc1	7	1.0%	-8%	7%
Cc1cc(C(=O)COc2cccnc2[N+](=O)[O-])c(C)n1-c1ccccc1F	-9	3.5%	0%	13%
OC1CNc2c(ccc3ccccc23)C1 (centres undefined)	.	?	.	-16%
Nc1nc(NC2CCCC2)cc(=O)[nH]1	.	0.5%	.	-8%
Cc1cc(-c2nnco2)c(C)n1-c1ccccc1	0	-0.1%	-37%	3%
CCOCCCNC(=O)C(NC(=O)CNC(=O)c1ccccc1)c1ccc(OC)cc1 (centres undefined)	.	2.7%	-5%	1%
CCCCn1c(SCC(=O)Nc2cccc(OC)c2)nc2ccc(N3CCOCC3)cc2c1=O	-10	0.9%	-3%	-4%
O=C(CN(C(=O)CCC(=O)Nc1nccs1)c1ccc(F)cc1)NCCc1ccccc1	.	0.2%	1%	8%
CCC(=O)Nc1ccc(-c2nc(-c3ccccc3)n(CC(=O)N3CCCCC3)n2)cc1	-5	2.1%	4%	-1%

14 entries already listed, ordered by SMILES length, largest number first.
SMILES	GLA inh pH 4.5	Rango-impB inh	miR-21 FLuc	Rango dissoc inh
CN(C)c1ccc(C(C(=O)NCc2ccccc2)N(Cc2cccnc2)C(=O)c2snc(C(N)=O)c2N)cc1 (centres undefined)	.	3.0%	20%	-19%
O=[N+]([O-])c1cccc(S(=O)(=O)N2CCN(S(=O)(=O)N3CCOCC3)CC2)c1	.	-0.7%	11%	5%
Cc1cc([N+](=O)[O-])nn1CCCC(=O)Nc1c(C)n(C)n(-c2ccccc2)c1=O	8	-0.2%	-2%	6%
CCC(=O)Nc1ccc(-c2nc(-c3ccccc3)n(CC(=O)N3CCCCC3)n2)cc1	-5	2.1%	4%	-1%
CCCCn1c(SCC(=O)Nc2cccc(OC)c2)nc2ccc(N3CCOCC3)cc2c1=O	-10	0.9%	-3%	-4%
O=C(CN(C(=O)CCC(=O)Nc1nccs1)c1ccc(F)cc1)NCCc1ccccc1	.	0.2%	1%	8%
Cc1cc(C(=O)COc2cccnc2[N+](=O)[O-])c(C)n1-c1ccccc1F	-9	3.5%	0%	13%
CCOCCCNC(=O)C(NC(=O)CNC(=O)c1ccccc1)c1ccc(OC)cc1 (centres undefined)	.	2.7%	-5%	1%
O=C(Cn1cnc2c(nnn2Cc2ccccc2)c1=O)c1ccc(Cl)cc1	7	1.0%	-8%	7%
COC(=O)CCNCCSc1nnc(-c2ccco2)n1Cc1ccccc1	5	8.5%	0%	41%
Cc1cc(-c2nnco2)c(C)n1-c1ccccc1	0	-0.1%	-37%	3%
Nc1nc(NC2CCCC2)cc(=O)[nH]1	.	0.5%	.	-8%
Cn1nc(C(C)(C)C)cc1C(=O)O	2	0.9%	2%	1%
OC1CNc2c(ccc3ccccc23)C1 (centres undefined)	.	?	.	-16%

Next section.
SMILES	GLA inh pH 4.5	Rango-impB inh	miR-21 FLuc	Rango dissoc inh
Cc1nn(Cc2ccccc2)c(C)c1C(=O)NCC(c1cccs1)N1CCOCC1 (centres undefined)	.	0.0%	.	9%
O=C(NCc1ccncc1)C(=O)N/N=C/c1cccnc1	-4	2.9%	-3%	-5%
Cc1cc(=O)[nH]c(-c2ccccc2OC(F)(F)F)n1	5	-0.4%	0%	10%
COc1cc(C(=O)Nc2cccc(-n3cnnn3)c2)cc(OC)c1OC	.	-0.6%	15%	-5%
CCC(CC)C(=O)Nc1nnc(SCC(=O)N2CCN(c3ccccc3OC)CC2)s1	0	-0.2%	18%	24%
CCNc1nc(Oc2ccc(=O)n(C)n2)nc(N2CCOCC2)n1	6	-0.5%	-4%	4%
CCOc1ccccc1Nc1nc(-c2sc(NC(=O)c3ccc([N+](=O)[O-])cc3)nc2C)cs1	-12	.	-20%	.
O=c1c(Cl)c(O)ccn1C1OC(CO)C(O)C1O (centres undefined)	.	0.3%	.	15%
COc1ccccc1NC(=O)Nc1ccc(Br)cn1	0	2.7%	-6%	0%
O=C(NCCCCNC(=O)c1ccccc1Br)c1ccccc1Br	.	0.6%	.	17%
O=C(CCCSc1nc(-c2ccco2)cc(C(F)(F)F)n1)NCc1cccs1	-3	0.3%	-6%	10%
O=C(CNC(=O)c1ccco1)Nc1ccc(F)c(Cl)c1	.	-1.0%	-6%	20%
Cn1nc(C(F)(F)F)c(C(=O)Nc2ccc(C(F)(F)F)cc2)c1Cl	-2	0.4%	-3%	6%
CCc1nc(N)c(C#N)c(-c2ccc(F)cc2)c1C	-4	1.4%	-3%	3%
Cc1cccc(Nc2nnc(SCC(=O)c3c(N)n(C4CC4)c(=O)[nH]c3=O)s2)c1	.	-2.5%	.	7%
Cn1cc(-c2nc3ccccc3[nH]2)c2ccccc21	-3	2.7%	-14%	-5%
O=C(COC(=O)C1CCN(c2ccc(C(F)(F)F)cn2)CC1)NCc1ccccc1	.	0.0%	.	-6%
O=C(Cc1ccccc1F)NCC(=O)Nc1ccccc1Br	.	-2.1%	1%	-3%
O=C(c1ccccc1)c1cnc(-c2ccccc2)s1	0	-0.5%	-30%	-3%
Cc1cc2cc(CNC(=O)c3ccc4c(c3)OCO4)ccc2n1C	-15	-1.1%	-8%	-4%
COCCN1C(=O)N[C@@H](c2cccc(F)c2)C(C(C)=O)=C1C	5	-0.1%	.	-3%
CC(C)Cn1c(N)c(C(=O)COC(=O)C2CC(=O)N(Cc3ccccc3Cl)C2)c(=O)n(C)c1=O (centres undefined)	-14	-2.0%	8%	11%
CCOC(=O)c1ccc(S(=O)(=O)N2CCN(C(=O)C3CSC4(C)CCC(=O)N34)CC2)cc1 (centres undefined)	.	0.5%	.	15%
Cn1nc(C(F)(F)F)c(C(=O)Nc2ccc(F)cc2F)c1Oc1cccc(Cl)c1	-4	0.6%	-1%	4%
Cc1ccc(C)c(OCCC(=O)Nc2ccc(S(=O)(=O)N3CCCC3)cc2)c1	.	0.4%	.	7%
COc1ccc(CCNC(=O)CN(c2ccc(OC)c(OC)c2)S(=O)(=O)c2ccc(C)cc2)cc1	.	-1.8%	1%	1%
CCn1c(CNc2ccc(F)cc2)nnc1SCC(=O)Nc1ccc(OC)cc1OC	3	1.8%	3%	-10%
Cc1csc(NC(=O)CSc2ccc(-c3ccc(F)cc3)nn2)n1	1	-0.2%	-9%	11%
O=C(Nc1ccc(Cl)cc1C(F)(F)F)c1ccccc1Cl	-1	0.0%	-7%	15%
O=c1cc(-c2ccccc2)nc2nc(-c3ccccc3)[nH]n12	2	-1.3%	-19%	-20%
CC(C)CN(CC(C)C)C1=N/C(=C\c2ccco2)C(=O)N1c1ccccc1	6	?	-13%	?
CSc1nc(N(C)NC(=O)c2ccc(F)cc2)c2ccccc2n1	4	0.6%	20%	44%
CC(C)Cc1n[nH]c(=O)[nH]1	2	5.4%	-2%	0%
COCCOc1ccc(C(F)(F)F)cc1NC(=O)CN1C(=O)NC2(CCc3ccccc32)C1=O (centres undefined)	.	-0.5%	.	23%
COc1ccccc1Oc1ccc2c(c1)C(=O)N(CC1CCCO1)C2=O (centres undefined)	-3	-0.2%	-29%	-15%
O=C(NCCS(=O)(=O)NCCc1ccccc1)c1ccc2c(c1)OCO2	.	-0.3%	.	-9%
COc1cc2c(cc1OC)C(CCc1ccccc1)=NCC2	-1	?	-9%	-19%
Cc1cc(CNC(=O)COc2ccc(C)c(C)c2)c2ccccc2n1	-8	-1.7%	5%	0%
Cc1cc(C(=O)N/N=C/c2ccc3c(c2)OCO3)c2ccccc2n1	-1	4.9%	11%	-12%
Cc1ncsc1CCOC(=O)c1cccc([N+](=O)[O-])c1	-4&14	1.2%&-3.7%	-6%&3%	?
COc1ccccc1N1CC(C(=O)Nc2nnc(SCC(=O)N3CCOCC3)s2)CC1=O (centres undefined)	.	-1.3%	0%	7%
N#Cc1cccnc1N1CCN(C(=O)c2cccs2)CC1	.	1.9%	-17%	-14%
O=C(NNS(=O)(=O)c1ccccc1F)c1cc(-c2ccccc2)n[nH]1	2	0.6%	3%	19%
O=C(CNC(=O)C1CCCCC1)NC1=NCCS1	2	-4.5%	-2%	-2%
COc1ccccc1Cn1c(=O)c2ccccc2n2c(SCc3csc(C)n3)nnc12	14	-0.9%	-8%	19%
Cc1ccc(CSCCNC(=O)CN2C(=O)c3ccccc3S2(=O)=O)cc1	-2	-1.2%	0%	4%
O=C(CSc1nnc(CCCO)n1-c1ccccc1)Nc1nccs1	3	-0.1%	-5%	5%
O=C(CN(CC1CCCO1)S(=O)(=O)c1ccc(S(=O)(=O)NCC2CCCO2)cc1)Nc1ccccc1 (centres undefined)	9	0.2%	0%	3%
